YopH PTP inh: inhibitors of Yersinia enterocolitica YopH tyrosine phosphatase; inhibition, %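 (about 10 µM by stock and volumes)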; 140,000 tested, 0.16% active; fluorescence Ex485/Em525; AID 898;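 active = inhibition of 50% or more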;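 also: controls were vehicle for no effect and minimum signal wells for full effect; inactives centre near -20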
Mtb bLac sens: beta-lactam sensitization of Mtb H37Rv. AID 434955. 330,000 tested, 0.27% active. M. tuberculosis H37Rv growth with meropenem, percent inhibition; hits of this screen are not shown here. inhibition, % at 25 µM;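 active = about 74% or more and at least 40 points above the plate without the antibiotic, then above 30% in a dose series; inconclusive = first-round hits that could not be retested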;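 also: growth measured after seven days incubation then overnight dye step; 0% = bacteria only wells and 100% = bacteria with antibiotic; twin plates without the antibiotic show which effects depend on it; some results filed as inactive read as strong as hits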
RecA splice inh: inhibitors of M. tuberculosis RecA intein splicing. cell-free RecA intein splicing, fluorescence. inhibition, %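 (about 9 µM by stock and volumes)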. 290,000 tested, 0.75% active. AID 2221; in the data active = inhibition above about 30%; inconclusive = no clear call, values can overlap the other calls;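 also: 0% = vehicle wells and 100% = reference inhibitor control wells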
Target sequence (P9WHJ3 whole entry, looked up, canonical isoform): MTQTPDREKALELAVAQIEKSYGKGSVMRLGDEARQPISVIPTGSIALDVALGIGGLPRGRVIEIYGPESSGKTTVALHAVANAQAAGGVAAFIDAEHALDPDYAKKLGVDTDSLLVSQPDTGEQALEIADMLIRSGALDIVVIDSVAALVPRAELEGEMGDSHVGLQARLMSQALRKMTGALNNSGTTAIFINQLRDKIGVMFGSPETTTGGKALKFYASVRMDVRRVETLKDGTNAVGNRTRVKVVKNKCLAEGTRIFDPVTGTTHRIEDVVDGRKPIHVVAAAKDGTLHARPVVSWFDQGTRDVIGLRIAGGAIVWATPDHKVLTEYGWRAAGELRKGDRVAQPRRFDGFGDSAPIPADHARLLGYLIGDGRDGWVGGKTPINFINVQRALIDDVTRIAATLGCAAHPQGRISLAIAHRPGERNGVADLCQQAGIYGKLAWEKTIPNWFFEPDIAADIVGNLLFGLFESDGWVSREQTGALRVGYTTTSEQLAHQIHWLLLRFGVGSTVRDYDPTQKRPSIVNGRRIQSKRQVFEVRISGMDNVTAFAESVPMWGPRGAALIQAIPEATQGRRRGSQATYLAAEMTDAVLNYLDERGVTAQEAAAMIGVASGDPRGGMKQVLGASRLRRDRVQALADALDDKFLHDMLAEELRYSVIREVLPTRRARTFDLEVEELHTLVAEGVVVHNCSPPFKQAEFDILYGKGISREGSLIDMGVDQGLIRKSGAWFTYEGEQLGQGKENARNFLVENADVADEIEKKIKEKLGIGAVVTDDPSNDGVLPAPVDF
Arbovirus inh: antivirals against arbovirus infection; AID 1251; inhibition, % at 10 µM; 200,000 tested, 0.37% active; arbovirus infection cell-based antiviral screen;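 active = inhibition from about 30%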;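 also: bluetongue infection of BSR cells; cell survival read as ATP light after 72 h; 0% = infected wells without compound and 100% = uninfected wells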
Mtb growth: M. tuberculosis H37Rv growth inhibitors, H37Rv strain (AID 1626). M. tuberculosis H37Rv growth inhibition; higher % means a stronger effect. inhibition, % at 10 µM; hits with a dose series show IC50 in µM. 220,000 tested, 0.95% active;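 active = confirmed in a dose series; inconclusive = inhibition above 80% but not taken into the dose series; inactive = below 80% or under 30% at every dose of the series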;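 also: bacteria incubated seven days before Alamar blue readout; 0% = bacteria only wells and 100% = bacteria with antibiotic wells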
Arbovirus inh repeat: recorded beside Arbovirus inh, whose call it bears; inhibition, %; measured here: 10K subset replicate screen; many hits read low in the repeat;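 first of two repeat runs on a subset; 0% = infected and 100% = uninfected wells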
The depositor's hits bear a star; ? = inconclusive; nt = no result given. These rows are one share of the data; the hit share may differ from the screen's.

SMILES | YopH PTP inh | Mtb bLac sens | RecA splice inh | Arbovirus inh | Mtb growth | others
Nc1cc(=O)[nH]c(SCC(=O)Nc2ccccc2Sc2ccccc2)n1 | nt | -10 | 1.5 | 12 | 0%
O/N=C/c1cc(Cl)ccc1OCc1ccccc1Cl | -25 | -5 | 9.5 | -3 | 5%
CC1C(=O)N2CCCc3cc(NC(=O)COc4ccccc4)cc1c32 (centres undefined) | nt | -8 | 0.9 | nt | nt
CC(C)c1csc(CN2CCC(n3nccc3NC(=O)Cc3ccccc3)CC2)n1 | nt | ? | 1.8 | nt | nt
CC(NC(=O)C(C)N1C(=O)c2ccccc2C1=O)c1ccccc1 (centres undefined) | nt | 0 | 0.4 | nt | nt
O=C(Cn1cc(C(=O)C2CC2)c2ccccc21)Nc1ccc(F)cc1 | nt | -3 | -1.9 | nt | nt
CCc1cccc(NC(=O)C2CCCN(S(=O)(=O)c3c(C)[nH]c(=O)[nH]c3=O)C2)c1 (centres undefined) | -2 | -3 | 2.9 | 2 | -3%
N#C/C(C(=O)NCc1ccccc1)=C1/N=C(NC(=O)c2ccco2)c2ccccc21 | nt | -4 | -0.8 | nt | -9%
NC(=O)c1c(C(F)(F)F)cc(-c2ccccc2)nc1NCCO | -25 | 3 | 2.1 | -4 | 6%
O=C(Nc1cccc(Cl)c1)c1ccc2c(=O)n3c(nc2c1)CCCCC3 | 0 | nt | 0.1 | -16 | nt
NC(=O)c1nnn(-c2nonc2N)c1-c1ccc([N+](=O)[O-])cc1 | nt | -1 | 0.6 | 4 | 2%
O=[N+]([O-])c1ccccc1CSc1nnc2ccccn12 | nt | -1 | -1.4 | 8 | 3%

Pulled by compound from the list above, 6 records:
SMILES | YopH PTP inh | Mtb bLac sens | RecA splice inh | Arbovirus inh | Mtb growth | others
CC(C)c1csc(CN2CCC(n3nccc3NC(=O)Cc3ccccc3)CC2)n1 | nt | ? | 1.8 | nt | nt
N#C/C(C(=O)NCc1ccccc1)=C1/N=C(NC(=O)c2ccco2)c2ccccc21 | nt | -4 | -0.8 | nt | -9%
CC(NC(=O)C(C)N1C(=O)c2ccccc2C1=O)c1ccccc1 (centres undefined) | nt | 0 | 0.4 | nt | nt
CC1C(=O)N2CCCc3cc(NC(=O)COc4ccccc4)cc1c32 (centres undefined) | nt | -8 | 0.9 | nt | nt
O=[N+]([O-])c1ccccc1CSc1nnc2ccccn12 | nt | -1 | -1.4 | 8 | 3%
NC(=O)c1nnn(-c2nonc2N)c1-c1ccc([N+](=O)[O-])cc1 | nt | -1 | 0.6 | 4 | 2%

Next structures.
SMILES | YopH PTP inh | Mtb bLac sens | RecA splice inh | Arbovirus inh | Mtb growth | others
CNc1nccc(-c2ccc(F)cc2)c1C#N | nt | -5 | -2.1 | -6 | 4%
CCNC(=O)Nc1ccc(S(=O)(=O)Nc2cnc(C)nc2C)cc1 | nt | 6 | -15 | nt | nt
NS(=O)(=O)c1ccc(CCNC(=O)CSc2nc3ccsc3c(=O)n2CC2CCC(C(=O)O)CC2)cc1 (centres undefined) | nt | -1 | 0.0 | 15 | -5%
CC1(C)Cc2cccc(OCC(=O)Nc3cc(C(F)(F)F)ccc3N3CCOCC3)c2O1 | -19 | 3 | 1.1 | 8 | -10%
Cc1ccccc1NC(=S)NCc1cccn1C | 6 | 0 | 2.3 | -15 | -3%
c1cnc2ccc(C(c3nnnn3C3CCCC3)N3CCN(c4nc5ccccc5s4)CC3)cc2c1 (centres undefined) | -55 | 48 | 8.8 | -15 | ?
COCc1ccc(C(=O)N2CCCC(N(C)Cc3ccccc3)C2)s1 (centres undefined) | nt | -2 | 1.0 | nt | nt
C/C(=N/NC(=O)CCC(=O)Nc1ccc(Br)cc1)c1ccc(Br)cc1 | nt | -6 | 1.7 | nt | nt
O=C1N=c2ccccc2=C1c1sc(NS(=O)(=O)Cc2ccccc2)nc1O | nt | 39 | -0.7 | nt | -5%
O=C(c1cccs1)N1N=C(c2ccccc2)CC1c1ccccc1O (centres undefined) | nt | 2 | 2.2 | -30 | 75%
CCCCNC(=O)COC(=O)c1ccc(C)c(NC(=O)c2ccco2)c1 | nt | -2 | 0.8 | 9 | -7%
CC(Nc1ccc2c(c1)OCCO2)C(=O)N1CCc2ccccc21 (centres undefined) | nt | -5 | -0.7 | 6 | 4%
CCc1ccc(NC(=O)c2sc3nc4n(c(=O)c3c2C)CCC4)cc1 | nt | 6 | -3.9 | nt | nt
COCCN1Cc2cccc(C(=O)NCc3cccnc3)c2C1=O | -23 | -8 | -0.4 | 6 | -6% | Arbovirus inh repeat=-2
CC1CCN(C(=O)COC(=O)c2cc(S(=O)(=O)N3CCOCC3)ccc2Cl)CC1 | nt | -6 | 1.2 | nt | nt
CN1CCN(C(=S)Nc2ccc(Cl)c(Cl)c2)CC1 | -10 | 0 | -0.5 | 12 | 3%
OC12CCCCC1C(c1ccc3c(c1)OCO3)N(Cc1cccc(F)c1)CC2 (centres undefined) | 28 | nt | 3.2 | -13 | -3%
COc1ccc(C=O)cc1O | -35 | -3 | 1.4 | -2 | -11%
Cc1ccc(S(=O)(=O)CCSc2nc(C)cc(C(F)(F)F)c2C#N)cc1 | -13 | -2 | 4.2 | -3 | 10%
CCN(C(=O)CN1C(=S)NC(C)(C)CC1C)c1ccc(C)c(C)c1 (centres undefined) | nt | -8 | -0.3 | 8 | -1%
O=c1[nH]c(COc2ccccc2)nc2ccccc12 | nt | -4 | -1.3 | nt | nt
COc1cccc(OCCNS(=O)(=O)c2cccc([N+](=O)[O-])c2)c1 | nt | 3 | -1.8 | -6 | 1%
O=C(c1ccccc1Cl)c1c(O)c2ccccc2oc1=O | nt | 6 | 2.6 | nt | nt
N/C(Cc1ccc([N+](=O)[O-])cc1)=N\OC(=O)COc1ccccc1Cl | -25 | 7 | 5.5 | -1 | 8%

Next section, starting with the last 6 of the part before.
SMILES | YopH PTP inh | Mtb bLac sens | RecA splice inh | Arbovirus inh | Mtb growth | others
Cc1ccc(S(=O)(=O)CCSc2nc(C)cc(C(F)(F)F)c2C#N)cc1 | -13 | -2 | 4.2 | -3 | 10%
CCN(C(=O)CN1C(=S)NC(C)(C)CC1C)c1ccc(C)c(C)c1 (centres undefined) | nt | -8 | -0.3 | 8 | -1%
O=c1[nH]c(COc2ccccc2)nc2ccccc12 | nt | -4 | -1.3 | nt | nt
COc1cccc(OCCNS(=O)(=O)c2cccc([N+](=O)[O-])c2)c1 | nt | 3 | -1.8 | -6 | 1%
O=C(c1ccccc1Cl)c1c(O)c2ccccc2oc1=O | nt | 6 | 2.6 | nt | nt
N/C(Cc1ccc([N+](=O)[O-])cc1)=N\OC(=O)COc1ccccc1Cl | -25 | 7 | 5.5 | -1 | 8%
CCOc1ccc(OCC(=O)Nc2ccc(OC)cc2)cc1 | -15 | 99 | 1.3 | 3 | 74%
CCN1CCSc2ccc(C(=O)NCc3cc(Br)ccc3OC)cc21 | nt | -8 | -7.7 | nt | nt
COc1ccc(-n2nnc3c(=O)n(Cc4ccccc4C)cnc32)cc1 | -36 | -8 | -3.5 | -6 | -4%
NC(=O)c1ccsc1NC(=O)c1cc(=O)c2ccccc2o1 | -41 | 2 | nt | -2 | nt
Cc1ccc(-n2cnnn2)cc1Cl | nt | 7 | 2.0 | 2 | -4%
COc1cccc(-c2noc(CCCC(=O)N3CCOCC3)n2)c1 | nt | 0 | -4.3 | -2 | -10%
COc1ccc(OC)c(NC(=O)COC(=O)Cc2ccc(-c3ccccc3)cc2)c1 | -5 | 64 | 12 | -5 | 6%
Cc1ccc(C)c(S(=O)(=O)Nc2ccc(O)c(C(=O)O)c2)c1 | nt | 0 | 0.1 | -7 | -2%
CCNC(=S)N1CCC(n2cnc3ccccc32)CC1 | nt | 1 | -0.1 | 1 | -9%
C=CCOc1c(CNn2nnnc2N)cccc1OC | -3 | -7 | nt | 5 | 2%
Cn1c(=O)c(C=Nc2ccccc2)c(O)c2ccccc21 | nt | 12 | -2.8 | nt | -8%
O=C(C1CCC(Cn2c(=S)[nH]c3ccccc3c2=O)CC1)N1CCN(c2ccccc2)CC1 (centres undefined) | -17 | 90 | 11 | nt | 5%
CCC(C)(C)n1nnnc1C(c1cccnc1)N1CCCC(C)C1 (centres undefined) | nt | 8 | -2.5 | 10 | -1%
COc1ccccc1N1CCN(S(=O)(=O)c2ccc3c4c(cccc24)C(=O)N3C)CC1 | 9 | nt | -3.3 | 8 | 2%
Cc1cccc(C(=O)Nc2sc(-c3ccccc3)cc2C(=O)O)c1 | nt | 88 | 1.2 | nt | 0%
CCCc1[nH]nc2c1C(c1ccc(OC(=O)c3ccco3)cc1)C(C#N)=C(N)O2 (centres undefined) | -17 | -6 | 82* | 4 | 0%
COc1cc2c(cc1OC)C(C(=O)N1CCCC1)C(c1ccccc1F)N(C)C2=O (centres undefined) | -20 | -4 | 0.7 | -2 | 2% | Arbovirus inh repeat=1
CCn1cc(CN2CCN(Cc3ccc(OC)c(C)c3C)C(CCO)C2)c(C)n1 (centres undefined) | nt | 0 | -0.5 | -16 | -7%
CN(C)c1ccc(/C=C/C#N)cc1 | nt | 8 | -2.6 | nt | -7%
CCCN(CC(=O)Nc1ccc(F)c(F)c1F)C(=O)CCc1nc2ccccc2c(=O)[nH]1 | nt | 1 | -1.8 | nt | nt
COc1ccc(NC(=O)CN(C)C(=O)c2ccc(=O)[nH]c2)cc1 | nt | -10 | -0.3 | nt | nt
CCn1ncc([N+](=O)[O-])c1C(=O)Nc1ccc(C)c(C)c1 | nt | -5 | 0.0 | nt | nt
CCn1nnc(NC(=O)c2sc3ccccc3c2Cl)n1 | -39 | 98 | 0.0 | -2 | 47%
CCOc1ccc(/C=N/NC(=O)Cc2csc(Nc3cccc(C(F)(F)F)c3)n2)c(OCC)c1 | -36 | 10 | 0.2 | -23 | 1%
COC(=O)c1ccc(-n2nnnc2SCC(=O)Nc2ccccc2F)cc1 | nt | 7 | -0.6 | nt | nt
O=c1c(-c2ccco2)[n+]([O-])c2ccccc2n1OCc1ccccc1[N+](=O)[O-] | nt | 0 | -1.2 | 2 | 0%
COC(=O)c1ccc(=O)n(-c2ccc(OC)cc2)c1 | -33 | -12 | -5.0 | 2 | 17%
CCN(CC)CCNC(=O)c1cc2c(=O)n(C)c3ccccc3c2n1C | -40 | 1 | -0.4 | 14 | 3% | Arbovirus inh repeat=-3
Cc1cccc(N2CCN(S(=O)(=O)c3cccc4nonc34)CC2C)c1 (centres undefined) | nt | 4 | -0.8 | -3 | 6%
COc1ccc(C2C(C(=O)NCc3ccccc3)=C(C)Nc3ncnn32)cc1OC (centres undefined) | -22 | 3 | 0.4 | 8 | -3%
C=CCN(CC=C)C(=O)COC(=O)c1ccc(Sc2ncn[nH]2)c([N+](=O)[O-])c1 | nt | 4 | 2.0 | 17 | 4%
CC(=O)N1CCC2(CC1)CC(=O)c1cc(OCC(=O)N3CCOCC3)ccc1O2 | nt | 0 | -14 | -3 | 0%
COc1cccc2cc(C(=O)Oc3ccccc3)c(=O)oc12 | nt | 9 | 0.0 | nt | nt
CCOc1ccc(C(=O)Nc2cc(=O)n(C)c(=O)n2C)cc1 | -36 | 1 | 0.7 | 11 | 4% | Arbovirus inh repeat=-1
CCN(CC)C(=O)c1[nH]cnc1C(=O)N[C@@H](CCCCNC(=O)OC(C)(C)C)C(=O)OC(C)(C)C | nt | -4 | -2.1 | -3 | -1%
Cc1ccccc1-n1c(=O)c2ccccc2n2cnnc12 | -7 | 5 | -3.9 | 1 | -1%

Already shown: an excerpt of the list.
SMILES | YopH PTP inh | Mtb bLac sens | RecA splice inh | Arbovirus inh | Mtb growth | others
COC(=O)c1ccc(-n2nnnc2SCC(=O)Nc2ccccc2F)cc1 | nt | 7 | -0.6 | nt | nt
O=c1c(-c2ccco2)[n+]([O-])c2ccccc2n1OCc1ccccc1[N+](=O)[O-] | nt | 0 | -1.2 | 2 | 0%

Next records
SMILES | YopH PTP inh | Mtb bLac sens | RecA splice inh | Arbovirus inh | Mtb growth | others
OC1CCCCC1N1CCC(c2ccccc2)CC1 (centres undefined) | -43 | -8 | 3.4 | -2 | -3%
CCN1CCN(C(CNS(=O)(=O)c2ccc(OC)cc2)c2cccnc2)CC1 (centres undefined) | -13 | 8 | 4.9 | 6 | -7% | Arbovirus inh repeat=1
COc1ccc(CC(=O)N(Cc2ccccc2)C(C)C)cc1 | nt | 4 | 2.2 | nt | nt
O=C(COc1ccc(/C=N/NC(=O)c2ccccc2)cc1)Nc1ccc([N+](=O)[O-])cc1 | 1 | 7 | 1.1 | -26 | -7%
COc1ccc(-c2c3c(=O)n(C)c(=O)n(C)c3cn2NC(C)=O)cc1 | -32 | 7 | 2.6 | -5 | -3%

Screening results as filed in PubChem BioAssay.
